ALR H2O2 inh: inhibitors of human ALR sulfhydryl oxidase, primary screen, biochemical, H2O2 detection, HRP-luminol luminescence, single point; purified ALR, DTT oxidation; inhibition, % (test concentration not listed); 290,000 compounds, 3.8% hits; AID 485317, 2010;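 active = mean and each replicate at 75% or more; inconclusive = only one of the two met; inactive = neither met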;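 note: stock transfer was 7.5 nL into about 7.5 µL; 0% = neutral wells and 100% = wells with inactivated enzyme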
Target sequence (P55789 whole entry, looked up): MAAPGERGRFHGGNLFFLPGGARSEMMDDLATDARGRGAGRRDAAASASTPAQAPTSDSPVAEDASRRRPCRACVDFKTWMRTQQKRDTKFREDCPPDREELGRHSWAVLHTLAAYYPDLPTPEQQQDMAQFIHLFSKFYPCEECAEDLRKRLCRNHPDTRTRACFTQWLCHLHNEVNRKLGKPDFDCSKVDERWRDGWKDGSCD
Beta2AR agonist: beta2AR agonists driving receptor internalization, primary screen, cell-based, FAP fluorogen, flow cytometry | Am2.2-beta2AR cells; reference of the scale not given here | AID 504454, 2011 | Beta-2 adrenergic receptor (Homo sapiens), P07550 | 340,000 compounds, 0.43% hits | response, % (no concentration beside the values);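 active = response above a set limit, near 3 SD of response in nonfluorescent compounds, cut at about 42% in these data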;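 note: stock transfer was 100 nL into about 11 µL; a reference agonist was the positive control; negative values mostly stem from fluorescent compounds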
Target sequence (P07550 whole entry, looked up): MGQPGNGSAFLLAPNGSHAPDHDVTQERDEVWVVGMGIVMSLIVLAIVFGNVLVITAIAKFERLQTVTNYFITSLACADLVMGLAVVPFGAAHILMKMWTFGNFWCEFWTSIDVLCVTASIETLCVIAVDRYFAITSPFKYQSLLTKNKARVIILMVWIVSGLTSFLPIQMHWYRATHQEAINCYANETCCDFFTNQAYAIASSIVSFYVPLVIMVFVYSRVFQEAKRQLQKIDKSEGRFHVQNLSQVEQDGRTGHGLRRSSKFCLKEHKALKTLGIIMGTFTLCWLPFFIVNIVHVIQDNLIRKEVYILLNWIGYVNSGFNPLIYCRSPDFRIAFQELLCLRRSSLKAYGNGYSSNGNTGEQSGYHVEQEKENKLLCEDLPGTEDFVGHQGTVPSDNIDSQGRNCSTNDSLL
LANA-H2A inh: blockers of LANA interaction with H2A/H2B – biochemical, FP readout, HTS, primary screen. Protein LANA1 (Human herpesvirus 8 type P (isolate GK18)), Q9QR71. cell-free LANA-H2A/H2B peptide, fluorescence polarization. inhibition, % (no concentration beside the values). 320,000 compounds, 0.6% hits. AID 2629, 2010; in the data active = inhibition mostly above about 10%, no sharp cut-off; inactive = mostly below about 6.7%;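 note: stock transfer was 7.5 nL into about 10 µL; 0% = median of vehicle wells and 100% = median of positive control wells; one replicate is shown; the record names a cut of 25% in any replicate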
RanGTP-Impb inh: inhibitors of RanGTP-importin-beta interaction, primary screen, biochemical, FRET, CFP-Ran, YFP-importin-beta, homogeneous | 300,000 compounds, 1.1% hits | cell-free CFP-Ran/YFP-importin-beta FRET ratio | inhibition, % (concentration not given with the values) | AID 2216, 2009 | Ran GTPase (GTP-bound) - importin-beta complex;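 active = most replicates above 15%; inconclusive = exactly half above 15%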;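 note: 0% = DMSO wells and 100% = Ran loaded with GDP instead of GTP; wells of about 40 µL received 100 nL stock; the first replicate is given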
HNF4A DNA FP: change in binding of human HNF4A to DNA, primary screen, biochemical, fluorescence polarization, FITC-DNA | Hepatocyte nuclear factor 4-alpha (Homo sapiens), P41235 | 1 h | activity change, % at 10 µM | 360,000 compounds, 0.3% hits | AID 1224865, 2016; in the data active = activity change above about 30%, passing the limit was not always enough;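 note: controls were the assay level and a saturating level of protein; the project sought stronger binding though the title names inhibitors; some compounds called inactive have numbers as strong as hits; positive values seem to mean higher polarization but the record does not say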
Target sequence (P41235 whole entry, looked up): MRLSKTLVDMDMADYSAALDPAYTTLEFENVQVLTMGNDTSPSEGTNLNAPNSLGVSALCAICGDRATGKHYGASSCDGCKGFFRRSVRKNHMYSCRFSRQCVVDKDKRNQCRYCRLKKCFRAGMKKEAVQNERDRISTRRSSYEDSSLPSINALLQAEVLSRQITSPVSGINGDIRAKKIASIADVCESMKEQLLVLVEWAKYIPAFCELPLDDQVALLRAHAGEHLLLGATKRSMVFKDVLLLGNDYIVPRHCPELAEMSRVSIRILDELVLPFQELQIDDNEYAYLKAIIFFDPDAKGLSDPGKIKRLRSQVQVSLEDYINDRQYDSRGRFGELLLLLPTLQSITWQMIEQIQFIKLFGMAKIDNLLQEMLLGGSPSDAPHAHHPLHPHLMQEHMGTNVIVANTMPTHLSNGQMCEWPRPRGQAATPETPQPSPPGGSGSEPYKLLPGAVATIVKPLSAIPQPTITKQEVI
Vif A3G: inhibitors of Vif binding to APOBEC3G peptide, primary screen, biochemical, TR-FRET, GST-Vif 1-94, biotin-A3G peptide, dose response retest (AID 1117319); TR-FRET GST-Vif / biotin-A3G peptide binding; higher % means a stronger effect; test concentration not given here; strong numbers were not always called active; one-dose inhibition, %; IC50 in µM for titrated hits; 260,000 compounds, 0.57% hits;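 active = above the screen mean plus three standard deviations and confirmed in dose response; inconclusive = results disagree or hit not tested in dose response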;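 note: Vif residues 1-94 fused to GST binding biotinylated APOBEC3G peptide 110-148; 0% = full assay without inhibitor and 100% = GST in place of GST-Vif; retest series ran down from 100 µM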
Calb FLC: C. albicans growth inhibition with fluconazole, primary screen, CaCi-2 strain, Alamar Blue fluorescence. C. albicans CaCi-2 (fluconazole-resistant clinical isolate) + fluconazole, 48 h. growth inhibition, % (concentration not given with the values). 300,000 compounds, 0.57% hits. AID 1979, 2009;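 active = most replicates above 75%; inconclusive = exactly half above 75%; inactive = most below 75%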;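 note: all wells also contain fluconazole at 8 µg/ml as a sub-toxic cotreatment; 0% = median of DMSO wells and 100% = median of geldanamycin control wells; wells of about 8 µL received 7.5 nL stock; the first replicate is given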
The depositor's hits bear a star. Compounds as they come; any-hit rate near 6.3%.

What do the screens show for `CC(=O)Nc1ccc(S(=O)(=O)N(C)CC(=O)OCC(=O)N2CCN(C(=O)c3ccco3)CC2)cc1`?
ALR H2O2 inh: -10; Beta2AR agonist: 6; LANA-H2A inh: -4.4; RanGTP-Impb inh: -2.3; HNF4A DNA FP: -4.4; Vif A3G: 13%; Calb FLC: 3

How did CCOc1cc(/C=N/Nc2nc(Nc3ccccc3)nc(N3CCCCC3)n2)ccc1OCC(=O)O do in these assays?
ALR H2O2 inh: 97*; Beta2AR agonist: 5; LANA-H2A inh: -0.1; RanGTP-Impb inh: 2.9; HNF4A DNA FP: -1.5; Calb FLC: 6

Results for CC(C)CC(=O)Nc1nc2c(c(=O)[nH]1)CCCC2 ?
ALR H2O2 inh: -6; Beta2AR agonist: -10; LANA-H2A inh: -4.8; RanGTP-Impb inh: -1.4; HNF4A DNA FP: 0.6; Vif A3G: inconclusive; Calb FLC: -3

How did CCCCN(C)S(=O)(=O)c1c(C)[nH]c(=O)[nH]c1=O do in these assays?
ALR H2O2 inh: -18; Beta2AR agonist: -1; LANA-H2A inh: 3.4; RanGTP-Impb inh: -0.9; HNF4A DNA FP: 0.0; Vif A3G: 16%; Calb FLC: -5

Results for Cc1ccccc1C(=O)N1c2ccccc2OCC1C(C)(C)C (stereo not given) ?
ALR H2O2 inh: 2; Beta2AR agonist: 0; LANA-H2A inh: -0.2; RanGTP-Impb inh: -0.5; HNF4A DNA FP: -3.1; Vif A3G: -7%; Calb FLC: 19

What do the screens show for `CCOC(=O)c1ccc(N(C(=O)c2ccco2)C(C(=O)NC2CCCCC2)c2ccncc2)cc1` (stereo not given)?
ALR H2O2 inh: -1; Beta2AR agonist: 3; LANA-H2A inh: 8.7; RanGTP-Impb inh: 3.4; HNF4A DNA FP: 1.8; Calb FLC: 10

How did COc1cccc(CNC(=O)CCC2CCCN(C(=O)c3ccc(F)c(Cl)c3)C2)c1 (stereo not given) do in these assays?
ALR H2O2 inh: 4; Beta2AR agonist: 8; LANA-H2A inh: 2.2; RanGTP-Impb inh: 2.3; HNF4A DNA FP: -0.6; Vif A3G: -8%; Calb FLC: -1

How did O=[N+]([O-])c1cccc(N2Cc3ccccc3C2)c1 do in these assays?
ALR H2O2 inh: -21; Beta2AR agonist: -7; LANA-H2A inh: -2.1; RanGTP-Impb inh: 2.4; HNF4A DNA FP: 1.9; Vif A3G: -7%; Calb FLC: 19

How did Cc1c(NP(=O)(c2ccc(Br)cc2)c2ccc(Br)cc2)c(=O)n(-c2ccccc2)n1C do in these assays?
ALR H2O2 inh: 5; Beta2AR agonist: -12; LANA-H2A inh: 2.9; RanGTP-Impb inh: -2.2; HNF4A DNA FP: 4.1; Vif A3G: 3%; Calb FLC: -11

Results for O=C(Nc1cccnc1)c1cc(-c2cccc(Br)c2)nc2ccccc12 ?
ALR H2O2 inh: 0; Beta2AR agonist: 6; LANA-H2A inh: 1.4; RanGTP-Impb inh: -0.8; HNF4A DNA FP: 2.6; Calb FLC: 0

What do the screens show for `O=S(=O)(c1ccccc1Cl)N1CCCC1c1nc(-c2ccccc2Cl)no1` (stereo not given)?
ALR H2O2 inh: -15; Beta2AR agonist: 2; LANA-H2A inh: -5.9; RanGTP-Impb inh: 4.8; HNF4A DNA FP: -0.7; Vif A3G: 4%; Calb FLC: 2

How did COc1ccccc1-n1c(CNC(=O)c2ccco2)nnc1SCC(=O)Nc1ccc(F)cc1 do in these assays?
ALR H2O2 inh: -10; Beta2AR agonist: -13; LANA-H2A inh: -4.8; RanGTP-Impb inh: 1.1; HNF4A DNA FP: 2.5; Vif A3G: -4%; Calb FLC: -8

What do the screens show for `COc1ccccc1NC(=O)CN1CCN(CC(=O)Nc2cc(C)ccc2OC)CC1`?
Beta2AR agonist: 7; RanGTP-Impb inh: 5.1; HNF4A DNA FP: -2.4; Vif A3G: -4%; Calb FLC: -3

Results for O=C(Cn1nc(C(F)F)cc1C(F)F)N/N=C/c1ccc2c(c1)OCO2 ?
ALR H2O2 inh: -5; Beta2AR agonist: 7; LANA-H2A inh: -10; RanGTP-Impb inh: -3.0; HNF4A DNA FP: -1.1; Vif A3G: -4%; Calb FLC: -14

Results for Nc1cc(=O)[nH]c(SCC(=O)Nc2cc(Cl)ccc2Cl)n1 ?
ALR H2O2 inh: -6; Beta2AR agonist: -2; LANA-H2A inh: -2.5; RanGTP-Impb inh: 10; HNF4A DNA FP: -0.2; Vif A3G: 2%; Calb FLC: 1

What do the screens show for `O=C(Nc1cccc(-n2cnnn2)c1)c1ccc(OC(F)(F)F)cc1`?
ALR H2O2 inh: 0; Beta2AR agonist: 1; LANA-H2A inh: -1.3; RanGTP-Impb inh: -1.8; HNF4A DNA FP: 9.1; Calb FLC: -9

What do the screens show for `Cc1cc(Br)cc(Br)c1OCC(=O)NNC(=O)Nc1ccccc1`?
ALR H2O2 inh: -7; Beta2AR agonist: 5; LANA-H2A inh: 3.2; RanGTP-Impb inh: 3.8; HNF4A DNA FP: 1.5; Calb FLC: -3

What do the screens show for `CCc1nc(SCc2ccccn2)c2c(=O)n(C)c(=O)n(C)c2n1`?
ALR H2O2 inh: -9; Beta2AR agonist: -9; LANA-H2A inh: -6.9; RanGTP-Impb inh: -2.6; HNF4A DNA FP: 1.2; Vif A3G: 2%; Calb FLC: 4

What do the screens show for `O=C(NNC(=O)OCc1ccccc1)OCc1ccccc1`?
Beta2AR agonist: -2; HNF4A DNA FP: -2.9; Vif A3G: -9%

Results for CCC(CC)NC(=O)CSc1ccc(S(=O)(=O)N2CCCCC2)cn1 ?
Beta2AR agonist: 3; HNF4A DNA FP: -2.0; Vif A3G: 7%

Results for Cn1c(SCC(=O)N2CCN(Cc3ccccc3)CC2)nnc1-c1ccncc1 ?
ALR H2O2 inh: -3; Beta2AR agonist: -2; LANA-H2A inh: 3.9; RanGTP-Impb inh: inconclusive; HNF4A DNA FP: 3.5; Vif A3G: 2%; Calb FLC: -4

How did CC(=O)Nc1ccc(NC(=O)c2cccc(S(=O)(=O)N3CCCCCC3)c2)cc1 do in these assays?
ALR H2O2 inh: -12; Beta2AR agonist: 0; LANA-H2A inh: -4.3; HNF4A DNA FP: -0.1; Vif A3G: -7%

What do the screens show for `O=c1c2ccccc2nc(COc2ccccc2)n1/N=C/c1cn[nH]c1-c1ccccc1`?
ALR H2O2 inh: 0; Beta2AR agonist: -7; LANA-H2A inh: 3.8; RanGTP-Impb inh: 1.8; HNF4A DNA FP: 2.6; Vif A3G: 6%; Calb FLC: 0

Results for Cc1c(Cl)cccc1NC(=O)C1C2C=CC(C2)C1C(=O)O (stereo not given) ?
ALR H2O2 inh: -1; Beta2AR agonist: 3; LANA-H2A inh: 4.7; RanGTP-Impb inh: 0.7; HNF4A DNA FP: 1.4; Vif A3G: 1%; Calb FLC: -23

How did CCCC(=O)N(c1ccc(OCC)cc1)S(=O)(=O)c1ccc2c3c(cccc13)C(=O)N2C do in these assays?
ALR H2O2 inh: 2; Beta2AR agonist: -4; LANA-H2A inh: -4.8; RanGTP-Impb inh: 2.0; HNF4A DNA FP: 0.2; Calb FLC: 6

What do the screens show for `COc1ccc(NC(=O)CN(C)S(=O)(=O)c2cccs2)cc1`?
ALR H2O2 inh: -9; Beta2AR agonist: -1; LANA-H2A inh: -2.0; RanGTP-Impb inh: 7.1; HNF4A DNA FP: -3.5; Vif A3G: 4%; Calb FLC: 11

What do the screens show for `COc1ccc(C(=O)N/C(=C/c2ccc(Cl)cc2)C(=O)NCc2ccncc2)cc1`?
ALR H2O2 inh: -11; Beta2AR agonist: 3; LANA-H2A inh: -9.7; RanGTP-Impb inh: inconclusive; HNF4A DNA FP: 7.9; Calb FLC: 1

How did CC1CN(S(=O)(=O)c2cccc(C(=O)N(Cc3nnc(-c4ccccc4Cl)o3)C3CC3)c2)CC(C)O1 (stereo not given) do in these assays?
ALR H2O2 inh: -2; Beta2AR agonist: 0; LANA-H2A inh: 4.6; RanGTP-Impb inh: 4.7; HNF4A DNA FP: 10; Vif A3G: -2%; Calb FLC: -2

What do the screens show for `CN1/C(=C\C=N\NC(=O)c2cccnc2)C(C)(C)c2ccccc21`?
ALR H2O2 inh: 98*; Beta2AR agonist: 11; LANA-H2A inh: 2.3; RanGTP-Impb inh: inconclusive; HNF4A DNA FP: 4.0; Calb FLC: 22

How did Cc1ccc(C(=O)Nc2cccc(C(F)(F)F)c2)cc1Nc1cnccn1 do in these assays?
ALR H2O2 inh: -7; Beta2AR agonist: -5; LANA-H2A inh: 0.9; RanGTP-Impb inh: 3.9; HNF4A DNA FP: -3.9; Vif A3G: 8%; Calb FLC: -15

Results for NC(=O)C1CCN(C(=O)/C=C/c2cc(Br)ccc2F)CC1 ?
ALR H2O2 inh: -8; Beta2AR agonist: -3; LANA-H2A inh: 2.1; RanGTP-Impb inh: 2.3; HNF4A DNA FP: -2.0; Vif A3G: -2%; Calb FLC: 1

How did Cc1ccc(O)c(NC(=S)NC(=O)CC(C)C)c1 do in these assays?
ALR H2O2 inh: 31; Beta2AR agonist: -5; LANA-H2A inh: 2.0; RanGTP-Impb inh: -1.4; HNF4A DNA FP: 5.8; Vif A3G: -7%; Calb FLC: 8

How did COc1ccc(Br)cc1-c1nc(C)c(C(C)=O)n1O do in these assays?
ALR H2O2 inh: -3; Beta2AR agonist: -2; LANA-H2A inh: -1.9; RanGTP-Impb inh: 0.3; HNF4A DNA FP: 4.2; Vif A3G: 11%; Calb FLC: -9

Results for O=C(COc1cccc2ccccc12)NNC(=O)Nc1ccccc1 ?
ALR H2O2 inh: -7; Beta2AR agonist: -11; LANA-H2A inh: -5.8; RanGTP-Impb inh: -1.9; HNF4A DNA FP: 1.1; Vif A3G: -2%; Calb FLC: 1

Results for CCC(C)C(=O)Nc1nc(C)c(-c2csc(Nc3cc(OC)ccc3OC)n2)s1 (stereo not given) ?
ALR H2O2 inh: -15; Beta2AR agonist: 35; LANA-H2A inh: 1.1; RanGTP-Impb inh: 0.4; HNF4A DNA FP: 1.5; Vif A3G: 2%; Calb FLC: 9

How did CCOC(=O)COc1ccc(-c2nnc(-c3ccccc3)o2)cc1 do in these assays?
ALR H2O2 inh: -8; Beta2AR agonist: 1; LANA-H2A inh: 7.5; RanGTP-Impb inh: -1.9; HNF4A DNA FP: -0.7; Vif A3G: -6%; Calb FLC: -9

How did O=S(=O)(Nc1cccc(S(=O)(=O)N2CCCCCC2)c1)c1ccccc1 do in these assays?
ALR H2O2 inh: -3; Beta2AR agonist: -2; LANA-H2A inh: 2.5; RanGTP-Impb inh: -3.6; HNF4A DNA FP: -1.2; Vif A3G: 1%; Calb FLC: 5

Results for CCOC(=O)CC1C(=O)NCCN1C(=O)c1ccc(C)cc1 (stereo not given) ?
ALR H2O2 inh: -10; Beta2AR agonist: 2; LANA-H2A inh: -1.6; RanGTP-Impb inh: -0.9; HNF4A DNA FP: 0.2; Vif A3G: -4%; Calb FLC: 9

What do the screens show for `CN(C)c1oc(COc2ccc(F)cc2)nc1C#N`?
Beta2AR agonist: 2; LANA-H2A inh: -0.2; RanGTP-Impb inh: 0.8; HNF4A DNA FP: 1.0; Vif A3G: 2%; Calb FLC: 6

Results for Fc1cccc(Cl)c1/C=N/Nc1c(Cl)cncc1Cl ?
ALR H2O2 inh: -4; Beta2AR agonist: -1; LANA-H2A inh: 7.4; RanGTP-Impb inh: 1.0; HNF4A DNA FP: -1.1; Vif A3G: 4%; Calb FLC: 38
